High-throughput results (PubChem)
Sa growth 42C – blocks Staphylococcus aureus growth; S. aureus RN4220 growth, OD600, 20 h, 42 °C; hits give low values; relative growth, % (no concentration beside the values); hit rate 0.53% among 170,000;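 active = growth at 42 °C up to 50% and 20 or more points under that at 30 °C, or under 10% at both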;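 note: 300 nL library stock went into each well; scaled to the means of positive and negative controls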
GIV-Gai inh – GIV-Galpha-i interaction inhibition | hit rate 0.42% among 210,000 | Galpha-i3/FITC-GIV peptide fluorescence polarization, 90 min; hits give low values; scaled: aluminum fluoride 0%, vehicle 100% | percent of control (FP), % (concentration not given with the values) | P08753;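 active = replicate mean at 85% of control or lower, very high polarization wells dropped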;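 note: wells of about 15 µL received 100 nL stock; the first replicate is given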
Target sequence (P08753 whole entry, looked up): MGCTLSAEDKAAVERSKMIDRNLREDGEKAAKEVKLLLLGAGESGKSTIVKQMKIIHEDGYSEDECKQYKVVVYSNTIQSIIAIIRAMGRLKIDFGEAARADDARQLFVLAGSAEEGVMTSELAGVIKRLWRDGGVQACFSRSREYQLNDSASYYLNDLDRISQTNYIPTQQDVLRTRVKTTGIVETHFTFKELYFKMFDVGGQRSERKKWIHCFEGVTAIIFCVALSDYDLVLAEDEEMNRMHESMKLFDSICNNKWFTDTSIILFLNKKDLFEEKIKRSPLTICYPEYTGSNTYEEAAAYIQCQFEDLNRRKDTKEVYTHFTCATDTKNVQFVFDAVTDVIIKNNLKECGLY
HCMV NEC inh – cytomegalovirus nuclear egress complex inhibition. HTRF UL50-UL53 interaction, normalized percent inhibition. inhibition, % (concentration not given with the values). hit rate 0.15% among 190,000. AID 1918969;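 active = both replicates at 50% or more, plus weaker picks with an unusually low signal ratio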;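 note: stock transfer was 100 nL into about 20 µL; 0% = negative control wells and 100% = wells with untagged competitor protein; inactives centre near -12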
Sa growth 42C second temp – second read-out of Sa growth 42C, no call of its own (marks repeat the call); relative growth, %; measured here: growth at 30 °C;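 optical density after 20 h as mean of two plates; 100% = untreated growth and lower means inhibition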
* marks the source's active call; other numbers are inactive results; x = not tested or not shown; & = joins results of further samples.

SMILES	Sa growth 42C	Sa growth 42C second temp	GIV-Gai inh	HCMV NEC inh
CCc1ccc2c(c1)c1nc3ccccc3nc1n2C	96	73	104	-3
COc1ccc(NC(=O)c2ccc3oc(=O)c(S(=O)(=O)c4ccc(F)cc4)cc3c2)cc1OC	87	90	96	-39
CCOc1cccc(NC(=O)CSc2ncc(-c3ccccc3)[nH]2)c1	98	85	104	-8
COc1ccccc1-n1c(-c2ccccc2)cn2c3c(=O)n(C)c(=O)n(C)c3nc12	81	85	x	-5
O=C(Nc1cccc2ccccc12)c1ccc(N2C(=O)C3C4C=CC(C4)C3C2=O)cc1 (configuration not stated)	x	x	103	-22
Cc1ccc(NC(=O)N2CCCC2c2nnc(C(=O)Nc3cccc(F)c3)s2)cc1Cl (configuration not stated)	x	x	105	-28
COc1ccccc1CNC(=O)C1c2c(C)nn(-c3ccccc3)c2SCC(=O)N1Cc1ccc(F)cc1 (configuration not stated)	x	x	102	-31
COc1cccc(-c2ccc3c(N)c(C(=O)c4ccc(Br)cc4)sc3n2)c1	103	87	115	-31
O=C1NC(=O)N(c2cccc(Br)c2)C(=O)/C1=C/c1ccc(N2CCCC2)o1	x	x	176	-38
CC1CCN(c2nc(NCc3cccnc3)nc(N3CCOCC3)n2)CC1	x	x	94	-24
CC(=O)NC(=S)Nc1ccc(Cl)cc1	115	97	102	-15
CCOc1ccc(CCNC(=O)c2noc3nc(C)nc(N4CCCCC4)c23)cc1OCC	x	x	105	-25
CSc1nc(-c2ccccc2)nc(Sc2ccccc2)c1C#N	110	87	102	-6
COC(=O)c1ccc(COC(=O)c2ccccc2Cl)cc1	118	81	x	-42
O=C1c2ccc(-c3nc4cc(Cl)ccc4c(=O)o3)cc2C(=O)N1CC1CCCO1 (configuration not stated)	97	104	99	-9
Cc1cc(C(=O)N2CCc3ccccc3C2)n[nH]1	110	82	97	-18
CC(C(=O)O)n1c(-c2cccs2)n[nH]c1=S (configuration not stated)	85	91	x	-34
O=C(Cn1c(=O)n2nc(-c3cccc(F)c3)nc2c2ccccc21)NCc1ccc(Cl)cc1	112	94	97	x
Cc1cc(C)nc(NC(c2ccsc2)c2cc(C)sc2NC(=O)c2ccccc2)n1 (configuration not stated)	x	x	108	-16
COc1cccc(NC(=O)CSc2nc(=O)n(Cc3ccncc3)c3c2CCC3)c1	136	88	107	x
COc1cnn(-c2cccc(Cl)c2)c(=O)c1Cl	105	90	107	-5
CCn1cc(C(=O)NC2CCCCC2)c2cc(OC)c(OC)cc2c1=O	79	86	98	0
COC(=O)c1scc(-c2ccccc2)c1S(=O)(=O)N1CCN(c2ccccc2OC)CC1	94	83	102	-36
CC(=O)c1ccc(N2CCN(C(=O)Cn3ncc4c3-c3ccccc3OC4)CC2)cc1	100	86	105	-38
CN(C)CCn1c2ccccc2n2cc(-c3ccc4c(c3)OCO4)nc12	x	x	99	-9

More results
SMILES	Sa growth 42C	Sa growth 42C second temp	GIV-Gai inh	HCMV NEC inh
CCN(CC(=O)Nc1ccc2c(c1)OCCO2)C(=O)C1CC1	99	92	x	-40
O=C(COc1ccc(Cl)cc1)Nc1noc2ccccc12	106	99	105	-2
CC(=O)NC(N1CCCCC1c1cccnc1)(C(F)(F)F)C(F)(F)F (configuration not stated)	99	101	x	9
O=C(Nc1nc2ccc(Cl)cc2s1)c1cc(=O)c2ccccc2o1	103	61	100	-27
COc1ccc(NCc2cc3cc4c(cc3n(CC(=O)Nc3ccc(F)cc3F)c2=O)OCO4)cc1	100	88	107	x
N[C@@H]1CCCC[C@H]1N.O=C(O)C(=O)O.[Pt]	96	103	107	-30
CCCC(C)C(=O)Nc1ccc(Cl)cn1 (configuration not stated)	105	106	97	6
CC1Sc2ccc(C(=O)NCc3ccccn3)cc2NC1=O (configuration not stated)	83	92	x	-26
CN(C)c1ccc(CN(Cc2ccco2)C(=O)COc2ccc(F)cc2)cc1	91	63	108	8
Cc1ccc(-c2nn3c(CC#N)nnc3c3ccccc23)cc1	113	96	105	-15
Cc1ccc(OCC(=O)n2cnnc2N)c(C)c1	96	96	x	0
O=c1[nH]c2c(c(=O)[nH]1)CN(Cc1ccc(F)cc1)CC2	91	100	103	2
CCOc1ccccc1C(=O)Nc1c(C(=O)Nc2ccc(F)cc2)oc2ccccc12	109	88	105	-37
COC(=O)CCC(=O)c1ccn(S(=O)(=O)c2ccccc2)c1	116	99	105	-7
O=C1C(C=NC(CO)(CO)CO)=C(O)c2ccccc21	91	90	x	-35
CCOC(=O)C1=C(N)SC(c2ccccc2)=C(C#N)C1c1ccco1 (configuration not stated)	113	93	x	-24
COC(=O)c1ccc(C2C3=C(CC(c4ccc(O)cc4)CC3=O)Nc3onc(C)c32)cc1 (configuration not stated)	x	x	102	-11
Cc1nc(C)c(-c2ccc(SCC(=O)Nc3ccc(Br)cc3)nn2)s1	68	50	97	x
COc1cc2nc(NC(=O)c3ccccc3)sc(=O)c2cc1OC	100	83	102	-22
Cc1ccc(Oc2ccc(C)c(C)c2)cc1C	102	104	103	x
Cn1ncc2c(N3CCN(c4cccc(Cl)c4)CC3)ncnc21	106	95	101	x
CC(C)(C)c1ccc(OCC(=O)NCC2(N3CCOCC3)CCCCC2)cc1	87	78	99	11
O=c1[nH]c(-c2ccccc2O)nc2sc3c(c12)CCCC3	82	83	x	-5
Cc1ccc(-c2nnc(N3CCOCC3)c3ccccc23)cc1S(=O)(=O)NCC1CCCO1 (configuration not stated)	90	99	104	-24
O=C(O)C1C2C=CC(C2)C1C(=O)NCCc1ccncc1 (configuration not stated)	76	86	x	-18

The list continues.
SMILES	Sa growth 42C	Sa growth 42C second temp	GIV-Gai inh	HCMV NEC inh
CCOc1ccc(NS(=O)(=O)c2cc(C(=O)N3CCN(c4ccccc4F)CC3)n[nH]2)cc1	x	x	102	13
O=C(Nc1ccccc1Cl)N1CCc2ccccc2C1	111	114	99	-2
FC(F)Oc1ccc(N=C2SCC3CCCCN23)cc1 (configuration not stated)	92	91	x	-22
Cc1cc(C)n2nc(CN(C(=O)C(C)(C)C)c3ccccc3)nc2n1	x	x	109	-14
Cc1cccc(OCC(=O)NCc2ccccc2)c1	82	95	x	9
O=c1c2cnn(-c3ccccc3)c2ncn1Cc1ccccc1	101	87	107	5
Cn1c2ccccc2c2cnn(CC(=O)NCCCN3CCCCC3)c(=O)c21	105	90	104	-17
Cc1nc(-c2ccc(F)cc2)sc1CCNC(=O)c1ccccc1	100	88	103&109	-19
COc1ccccc1CNC(=O)CSc1nc2c(cnn2-c2cccc(C)c2)c(=O)[nH]1	105	89	x	-39
Cc1ccc(N2C(=S)N(C)C3CS(=O)(=O)CC32)cc1 (configuration not stated)	100	94	102	0
Cc1nnc(Nc2ccc3c(c2)OCCO3)[nH]c1=O	77	82	103	-7
CCn1nc(C(=O)NCCC(C)C)c2ccccc2c1=O	88	97	x	-17
O=C(C1c2ccccc2Oc2ccccc21)N1CCN=C1SCc1ccccc1F	100	84	101	x
CCCNC(=O)Cn1c(=O)cnc2ccccc21	87	98	x	-33
CC(C)c1ccc(NC(=O)CCCc2nc3cccnc3n2Cc2ccccc2)cc1	x	x	111	-16
O=C(Nc1ccccc1)c1ccccc1OCC(O)CN1C(=O)c2ccccc2S1(=O)=O (configuration not stated)	x	x	106	-2
Cc1ccc(C2CC(=O)Nc3nc(N)[nH]c(=O)c32)cc1 (configuration not stated)	x	x	99	4
Cc1ccc(-n2cc(C(=O)Oc3ccc(F)cc3)c3ccccc3c2=O)cc1	88	89	109	x
COc1cc(OC)cc(C2NCCc3c2[nH]c2ccccc32)c1 (configuration not stated)	111	103	99	-23
C=CCN(C(=O)/C=C/c1ccco1)c1nc(-c2ccccc2)cs1	48	33	x	-27
CCOC(=O)c1cc2ccccc2oc1=N	75	94	x	-22
CC1CC(C)CN(S(=O)(=O)c2ccc(C(=O)NN3CCOCC3)cc2)C1 (configuration not stated)	99	98	104	-10
O=C1/C(=C/c2ccco2)CN(Cc2ccccc2)C/C1=C\c1ccco1	111	69	116	x
O=C1Nc2ccccc2SC(c2ccccc2)C1O (configuration not stated)	120	75	118	-14
O=c1[nH]c(CCl)nc2sc3c(c12)CCC3	75	64	x	-10

Whole records as entered above. Values in the order: Sa growth 42C, Sa growth 42C second temp, GIV-Gai inh, HCMV NEC inh
Record of COc1cc(OC)cc(C2NCCc3c2[nH]c2ccccc32)c1 (configuration not stated) : 111, 103, 99, -23
Record of COc1cnn(-c2cccc(Cl)c2)c(=O)c1Cl : 105, 90, 107, -5
Record of CCCNC(=O)Cn1c(=O)cnc2ccccc21 : 87, 98, x, -33
Record of O=c1[nH]c(-c2ccccc2O)nc2sc3c(c12)CCCC3 : 82, 83, x, -5
Record of O=C(Nc1nc2ccc(Cl)cc2s1)c1cc(=O)c2ccccc2o1 : 103, 61, 100, -27

Continuation:
SMILES	Sa growth 42C	Sa growth 42C second temp	GIV-Gai inh	HCMV NEC inh
c1cncc(CSc2nnc3ccc(-c4ccncc4)nn23)c1	93	82	105	-87
Cc1ccccc1NC(=O)CN(c1ccc(Cl)cc1Cl)S(=O)(=O)c1ccccc1	99	91	102	-2
CCC(C)NC(=O)c1cc(S(=O)(=O)N2CCc3ccccc3C2)ccc1Cl (configuration not stated)	142	88	x	-8
CS(=O)(=O)n1c(=O)oc2ccccc21	93	83	100	-4
COc1cccc(NC(=O)c2ccnc(N3CCC(C(=O)NC4CCCC4)CC3)c2)c1	100	95	108&96	-3&-15
Cc1ccc(NC(=O)CSc2nc3c([nH]c4ccccc43)c(=O)n2-c2ccccc2)c(C)c1	119	85	104	x
CN(C)C(=O)/C=C/c1cn(-c2ccccc2)nc1-c1ccccc1	103	83	x	-31
CCc1nn2c(=O)cc(COc3ccc(/C=C(\C#N)C(=O)Nc4ccc(F)cc4)cc3OC)nc2s1	108	91	109	19
CCOC(=O)CC1=CC(SCC(=O)Nc2cc(C)[nH]n2)=Nc2ccccc2N1	x	x	108	-19
COc1ccc(C(=O)NC(N2CCCCC2c2cccnc2)(C(F)(F)F)C(F)(F)F)cc1 (configuration not stated)	96	89	x	-1
CSc1nn(-c2ccccc2)cc1C(=O)N1CCOCC1	98	92	100	-39
CN(C(=O)Cn1nc(Cc2cccnc2)c2ccccc2c1=O)c1cccc(C(F)(F)F)c1	107	82	100	-23
COc1cccc(OC(C)C(=O)O)c1 (configuration not stated)	87	91	104	-29
Cc1ccc(-n2ncc(C(=O)NCCCN3CCN(C)CC3)c2C2CCN(C(=O)OC(C)(C)C)CC2)cc1	108	84	106	x
Cc1[nH]c2ccccc2c1SCCNC(=O)C(C)(C)C	100	78	104	x
O=C(O)C(Cc1ccccc1)n1cnnn1 (configuration not stated)	105	89	104	-15
COc1ccccc1C(=O)Nc1ccncc1	98	73	102	-7
O=C(CC(NCc1cccnc1)C(=O)O)NN(c1ccccc1)c1ccccc1 (configuration not stated)	99	97	101	-8
CCCc1nc2ccccc2c(C(=O)OCc2nnc(-c3cc(OC)c(OC)c(OC)c3)o2)c1CC	94	86	x	-11
CNCc1nc2ccccc2c(=O)[nH]1	101	89	x	-3
CC1=C(c2ccc(C)cc2)S(=O)(=O)N=C1Nc1ccc(C)cc1	92	83	104	x
COc1ccc(C(=O)N2CCc3c([nH]c4ccc(OC)cc34)C2c2ccc(F)cc2)cc1 (configuration not stated)	x	x	102	-25
O=C(Nc1ccccc1SC(F)(F)F)c1cccnc1	95	97	x	-21
Cc1cc(C)c(S(=O)(=O)Nc2cc(-c3cn4ccccc4n3)ccc2C)cc1C	102	95	93	-21
O=C(O)c1cccc(NC(=O)c2cccc(S(=O)(=O)Nc3cccc(C(=O)O)c3)c2)c1	103	95	95	x

Results in Sa growth 42C second temp, HCMV NEC inh and Sa growth 42C, for some of the entries so far:
molecule	Sa growth 42C second temp	HCMV NEC inh	Sa growth 42C
Cc1ccc(-n2ncc(C(=O)NCCCN3CCN(C)CC3)c2C2CCN(C(=O)OC(C)(C)C)CC2)cc1	84	x	108
Cc1[nH]c2ccccc2c1SCCNC(=O)C(C)(C)C	78	x	100
O=C(O)C(Cc1ccccc1)n1cnnn1 (configuration not stated)	89	-15	105
COc1ccccc1C(=O)Nc1ccncc1	73	-7	98

(cont.)
SMILES	Sa growth 42C	Sa growth 42C second temp	GIV-Gai inh	HCMV NEC inh
Cc1nn2c(C)c(C(=O)NC(C)c3ccccc3)cnc2c1-c1ccc(F)cc1 (configuration not stated)	97	101	100	x
COc1cc(C)nc(N2CCCC(C(=O)Nc3ccccc3Br)C2)n1 (configuration not stated)	99	79	99	-12
COC(=O)c1sc(S(=O)(=O)Nc2ccc(OC)cc2)cc1Cl	84	89	99	-19
O=C(Nc1ccc(F)c([N+](=O)[O-])c1)c1ccc2c(c1)OCCO2	x	x	106	-37
COC(=O)c1cccc(Nc2c(-c3ccc(OC)cc3)nc3nc[nH]n23)c1	85	92	100	x
COC(=O)c1ccc(Cn2cc(Cl)cn2)cc1	36	-1	104	x
COc1ccc(-c2nc3cc(OC)c(OC)cc3c(=O)o2)cc1	94	94	103	2
Cc1ccc2snc(C(=O)N3CCN(S(=O)(=O)c4cccc(F)c4)CC3)c2c1	x	x	101	-3
